gsp antagonist = gsp mutant antagonism | gsp-mutant cells, cAMP HTRF, 30 min; control for the full effect not named in the record | Potency, µM (highest dose often 76.9 µM), for the others: at the highest dose activity change, negative = inhibition, usual class: inhibitors | hit rate 0.4% among 340,000 | AID 624288; active = falling curve of any shape with a large fitted effect; inconclusive = falling curve, mostly with a smaller effect; inactive = flat or rising curve; cell line not stated here;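 note: intracellular cAMP measured with PDE inhibitor Ro 20-1724 present during compound exposure; potency is the fitted concentration of half-maximal effect; % is set by controls: 0 for no effect and ±100 for the full control effect; nearly all actives have a fitted effect of over 65% in size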
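Cells, 2000/well, grown 16–24 h in DMEM 10% FBS with 0.5 mg/ml G418, then compounds plus […] (300 uM addition stock), 30 min at 37C. cAMP read by HTRF (cAMP-d2 and anti-cAMP antibody-K in lysis buffer) after 30 min RT.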
gsp agonist = activates gsp, the McCune-Albright syndrome mutation; gsp mutant cells, cAMP HTRF, 30 min; control for the full effect not named in the record; Potency, µM (doses to about 76.9 µM), for inactives: at the highest dose activation (cAMP increase), usual class: activators; hit rate 0.13% among 340,000; AID 624287; active = well fitted activation curve with a large enough effect; inconclusive = small, poorly fitted or top-dose-only effect, or another doubt; inactive = no such curve, though single readings can be large or run the other way; cell line not stated here;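 note: phosphodiesterase inhibitor Ro 20-1724 added with compounds to block cAMP breakdown; potency is the fitted concentration of half-maximal effect; nearly all actives have a fitted effect of over 60% in size; about a fifth of the inactives were tested at one dose only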
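Cells in DMEM/10% FBS with G418 were pretreated with compounds in DMSO plus […] (300 uM stock) for 30 min at 37C. cAMP was measured by HTRF (cAMP-d2 plus anti-cAMP antibody-K) after 30 min at room temperature.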
TRPML1 agonist = activates the human TRPML1 channel; activation, % (no concentration beside the values); AID 624414; hit rate 0.12% among 410,000; Q9GZU1; TRPML1-expressing cells, Ca2+ dye fluorescence, FDSS; host cell line not named in the record; reference of the full effect not given here; in the data active = activation above about 50%; inconclusive = about 30% to 50%; inactive = below about 30%; note: 0% is about no effect; the text of the record puts the active cut at 80%
Target sequence (Q9GZU1 whole entry, looked up): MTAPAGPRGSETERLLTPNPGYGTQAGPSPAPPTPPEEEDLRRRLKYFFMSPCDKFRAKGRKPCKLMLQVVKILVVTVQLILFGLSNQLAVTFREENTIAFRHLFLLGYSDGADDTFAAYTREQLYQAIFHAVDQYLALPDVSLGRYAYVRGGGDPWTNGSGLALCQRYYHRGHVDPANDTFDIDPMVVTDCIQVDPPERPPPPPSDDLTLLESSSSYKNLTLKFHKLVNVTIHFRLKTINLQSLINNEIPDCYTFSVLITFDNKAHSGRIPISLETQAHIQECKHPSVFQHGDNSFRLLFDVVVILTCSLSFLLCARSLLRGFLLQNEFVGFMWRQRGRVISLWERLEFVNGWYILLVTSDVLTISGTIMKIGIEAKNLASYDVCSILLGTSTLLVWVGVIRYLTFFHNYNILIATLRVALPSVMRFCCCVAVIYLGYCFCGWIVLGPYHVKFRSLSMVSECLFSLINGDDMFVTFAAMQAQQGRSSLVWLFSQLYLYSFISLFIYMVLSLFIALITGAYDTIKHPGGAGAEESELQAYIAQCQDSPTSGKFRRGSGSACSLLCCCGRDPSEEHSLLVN
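Cells: TRPML1-DL, 1X Tet inducer, ~16 h at 37 degrees C/5% CO2. Dye: ABD Ca8 no-wash + quencher, 45-90 min RT. Read: 10 s baseline, compound add, 110 s agonist phase; 54-4 EC80 (4uM final), 110 s antagonist phase.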
Menin-MLL FL inh = displaces fluorescein MLL peptide from human menin. AID 1766. Fluorescence polarization, fluorescein-MLL peptide displacement from menin. FP activity change, % at 61.4 µM. 290,000 tested, under 10 active; inconclusive = falling polarisation curve, or a change in total fluorescence; inactive = total fluorescence flat and polarisation flat or rising; no compound was filed as active; the % refers to the polarisation; negative = inhibition;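 note: % of control where 0% means no effect; inhibitors lower the polarisation; unlabelled MLL peptide was the positive control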
ClpP mod = qHTS Assay for Activators of ClpP | ATP-dependent Clp protease proteolytic subunit (Bacillus subtilis (strain 168)), P80244 | purified B. subtilis ClpP, FRET peptide cleavage, 20 min | Potency, µM (highest dose often 57.5 µM), without a hit: at the highest dose activity change, negative = active | hit rate 1.9% among 340,000; active = well fitted falling curve with a large enough effect; inconclusive = small, poorly fitted or top-dose-only effect; inactive = no such curve, though single readings can be large or run the other way; note: potency is the fitted concentration of half-maximal effect; the source files actives as falling curves though it sought activators and does not explain the sign; nearly all actives have a fitted effect of over 65% in size; many hits overshoot -100%
Target sequence (P80244 whole entry, looked up): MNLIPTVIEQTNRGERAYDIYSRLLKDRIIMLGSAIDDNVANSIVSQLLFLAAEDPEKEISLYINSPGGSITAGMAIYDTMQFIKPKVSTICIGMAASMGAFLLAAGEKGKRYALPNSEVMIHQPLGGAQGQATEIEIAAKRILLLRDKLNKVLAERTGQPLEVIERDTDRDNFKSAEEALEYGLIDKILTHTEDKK
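FRET quenching reversal measured ClpP activation: 10 microg/mL B. subtilis ClpP at pH 8 with the FRET-FV decapeptide, read at 430 nm after 320 nm excitation. The 20-min minus 0-min signal was scaled between DMSO/no-enzyme wells and ADEP (5.8 microM final).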
TRPML1 blocker = blocks the human TRPML1 channel | Q9GZU1 | TRPML1-inducible cells, Ca2+ dye fluorescence, FDSS; stronger effect = lower value; inhibition of EC80 agonist-evoked calcium signal | activity change, negative = inhibition, % (no concentration beside the values) | hit rate 0.02% among 390,000 | AID 624415; in the data active means activity change below about -50%; inconclusive means about -30% to -50%; inactive means above about -30%;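 note: stimulus is agonist 54-4 at its EC80 concentration; % is set by controls: 0 for no effect and ±100 for the full control effect; compound concentration not given in the record; the text of the record puts the active cut at -80%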
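TRPML1-DL cells, Tet-induced overnight (~16 h, 37 °C) at 1,500 cells/well, were loaded with Ca8 no-wash dye plus quencher for 45-90 min at room temperature. Compounds were pinned during FDSS kinetic reading; agonist 54-4 at EC80 (4 uM final) then added.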
* marks the source's active call; other numbers are inactive results; ? = inconclusive; nt = not tested or not shown; & = joins results of further samples; [ ] = remark or other dose.

canonical_smiles	gsp antagonist	gsp agonist	TRPML1 agonist	Menin-MLL FL inh	ClpP mod	TRPML1 blocker
O=C(NCc1nc2ccccc2[nH]1)C1=C[C@H](c2ccc(C(F)(F)F)cc2)C[C@H](OCc2ccc(CO)cc2)O1	-18%	9%	0.3	-4.8	-0.7%	35
COc1ccc(CN2CCC(C(=O)N3CCCC(C)C3)CC2)cc1OC (configuration not stated)	14%	24%	1.5	2.7	-0.3%	-4
FC(F)(F)c1cccc(Cc2noc(CN3CCCC3)n2)c1	4%	-33%[inhibitor]	0.9	-0.3	nt	7
CCN(Cc1ccccc1)C(=O)c1cc(COc2c(F)cccc2F)on1	-10%	5%[15.4 µM]	2.5	-1.0	nt	39
COc1ccccc1NC(=O)CSC1=Nc2ccccc2C2=NC(CC(=O)NCc3ccc4c(c3)OCO4)C(=O)N12 (configuration not stated)	nt	nt	1.6	nt	-3.3%	4
CC(NC(=O)CN(c1ccc(F)cc1)S(C)(=O)=O)c1ccccc1 (configuration not stated)	-3%	-1%[15.4 µM]	-0.4	-6.1	-6.8%	-9
CCOC(=O)C1(Cc2cccc(OC)c2)CCCN(CCO)C1 (configuration not stated)	6%	-12%	0.2	11	-0.5%	9
Cn1nc(-c2ccc(C(=O)Nc3ccc(F)cc3)cc2)c2ccccc2c1=O	-17%	-19%	-0.6&0.6	-1.6	-21%	-8&8
COc1ccc(-c2nnc(SCc3ccccc3F)o2)cc1	-1%	14%	2.6	0.4	-2.6%	31
CN(C)S(=O)(=O)c1ccc(C(=O)NCC(=O)Nc2ccc(F)c(F)c2)cc1	5%	-1%	-0.7	2.1	-1.7%	5

Other structures
canonical_smiles	gsp antagonist	gsp agonist	TRPML1 agonist	Menin-MLL FL inh	ClpP mod	TRPML1 blocker
CCOCC(=O)Nc1c(C(=O)Nc2ccc3c(c2)OCCO3)oc2ccccc12	-17%	7%[15.4 µM]	4.3	0.2	nt	7
CCOC(=O)C1(C)C=C(Nc2ccccc2)C(=O)N1c1ccccc1 (configuration not stated)	-3%	-13%	0.9	1.2	-7.3%	8
CCCC1N2CC3([N+](=O)[O-])CN1CC([N+](=O)[O-])(C2)C3(C)C (configuration not stated)	3%	-51%[inhibitor]	-0.1	3.2	-3.1%	9
O=C(CN1C(=O)COc2ccccc21)N(Cc1cccnc1)Cc1cccc(F)c1	-14%	3%	-0.1	1.4	-1.8%	-7
Cn1c(=O)c2c(nc(NCCc3ccccc3)n2Cc2cccc(Br)c2)n(C)c1=O	nt	nt	0.5	nt	-6.1%	28
CSc1ccc(CN(C)C(C)C(=O)NCc2ccccc2)cc1 (configuration not stated)	-5%	-14%[15.4 µM]	2.9	-1.9	nt	0
O=C(NCCS(=O)(=O)NCc1ccccc1)c1ccc2c(c1)OCO2	6%	-11%[15.4 µM]	-0.7	nt	nt	11
O=C(NCCS(=O)(=O)N1CCN(c2ccc(F)cc2)CC1)c1cccc(C(F)(F)F)c1	nt	nt	2.0	nt	3.8%	3
Cn1c(SCc2ccccn2)nnc1-c1ccncc1	-1%	-4%	0.0	-0.5	-0.1%	55
COc1ccc(C)cc1NC(=O)CCN1CCN(C/C=C/c2ccccc2)CC1	-8%	-7%	0.6	-0.4	1.1%	-6

Following part
canonical_smiles	gsp antagonist	gsp agonist	TRPML1 agonist	Menin-MLL FL inh	ClpP mod	TRPML1 blocker
COc1ccc(CN2CCC(CO)(Cc3ccccc3C(F)(F)F)CC2)c(F)c1	-1%	-12%	-0.6	0.6	1.4%	0
O=C(Nc1ccc2c(c1)OCO2)c1ccc([N+](=O)[O-])cc1[N+](=O)[O-]	-11%	3%[15.4 µM]	-0.3	-1.1	nt	-4
COC(=O)c1cc(Cl)c(NC(=O)c2ccco2)cc1OC	7%	-4%	-0.4	3.1	-0.6%	39
O=C(Nc1ccc(S(=O)(=O)Nc2ncccn2)cc1)C12CC3CC(CC(C3)C1)C2	-30%	-46%[inhibitor]	0.3	nt	-1.9%	23
CNc1nc(=S)[nH]c2ccccc12	12%	-17%	0.2	-0.6	-0.8%	12
N#CC(CCc1ccccc1[N+](=O)[O-])(CCc1ccccc1[N+](=O)[O-])C(N)=O	-1%	14%[15.4 µM]	1.5	nt	-0.8%	20
COCCn1c(Cc2cccn2C)nnc1SCC(=O)NCc1ccc2c(c1)OCO2	6%	-19%	0.7	1.5	1.5%	19
CCCCSc1nnc(-c2ccc(C)cc2)c2ccccc12	?	-3%	1.2	0.7	?	26
C=CCn1c(SCC(=O)c2ccc(O)c(O)c2)nnc1-c1cccnc1	-16%	-4%	nt	3.2	-1.3%	nt
Cc1ccccc1Nc1cc(C(=O)NCc2ccco2)c2ccccc2n1	-2%	-39%	0.1	4.7	-0.9%	-5

The results go on:
canonical_smiles	gsp antagonist	gsp agonist	TRPML1 agonist	Menin-MLL FL inh	ClpP mod	TRPML1 blocker
COc1ccc(NS(=O)(=O)c2ccc(O)c(C(=O)OCC(=O)NC3CCCCC3)c2)cc1	-20%	4%[15.4 µM]	1.5	1.2	0.7%	-2
CC(C)c1ccc(OCC(O)CN2CCN(c3ccc(F)cc3)CC2)cc1 (configuration not stated)	nt	nt	3.1	nt	-5.2%	28
C[C@H]1CN=C(N(C)C)N1CC1CCCCC1	12%	nt	0.4	nt	0.7%	-1
O=C(NCc1cccc(Br)c1)C1CCCCN1S(=O)(=O)c1ccc(F)cc1 (configuration not stated)	nt	nt	2.8	nt	-0.3%	20
CCOC(=O)N1CCN(C(=O)c2ccc3[nH]c(C)c(C)c3c2)CC1	-1%	56%	0.9	nt	0.3%	-2
NS(=O)(=O)c1ccc(CNS(=O)(=O)c2cccc3nonc23)cc1	13%	5%[15.4 µM]	0.0	1.9	nt	-6
CC(C)(C)C1CCc2nc(NC(=O)c3ccc([N+](=O)[O-])cc3)sc2C1 (configuration not stated)	nt	nt	0.2	nt	-0.1%	-2
COc1ccc(OCc2cc(C(=O)NC(C)c3nc(C)cs3)no2)c(Cl)c1 (configuration not stated)	nt	-83%[inhibitor]	0.3	nt	-1.2%	2
COc1ccc(N(CC(=O)NC(C)(C)C)C(=O)c2ccco2)cc1	-2%	-30%[inhibitor]	0.8	2.9	0.4%	-1
Cc1cccc(N(CC(O)CN2CCCC2)S(=O)(=O)c2ccccc2)c1 (configuration not stated)	12%	-5%	1.5	-1.2	nt	28

(further entries)
canonical_smiles	gsp antagonist	gsp agonist	TRPML1 agonist	Menin-MLL FL inh	ClpP mod	TRPML1 blocker
COc1ccc(S(=O)(=O)N2CCCC2CNC(=O)C(=O)NC2CCCCCC2)cc1 (configuration not stated)	8%	-6%[15.4 µM]	-1.1	nt	nt	5
CCN(CC)S(=O)(=O)c1ccc2c(c1)nc(CCC(=O)O)n2CC	nt	19%[15.4 µM]	1.0	-1.4	nt	-15
CCCOc1ccc(Cc2nn[nH]n2)cc1	-20%	29%	3.6	2.7	2.2%	11
CCOC(=O)c1ccc(NC(=O)NC2CC3CCC(C2)N3C(=S)NC)cc1 (configuration not stated)	-5%	8%[15.4 µM]	-0.2	-9.2	0.2%	-10
Cc1ccc2oc(C(=O)Nc3c(C(=O)Nc4cccc(Cl)c4)oc4ccccc34)cc(=O)c2c1	nt	nt	-0.2	nt	-2.1%	19
O=C1C2C(c3ccccc3)CC=CC2C(c2cccc(Br)c2)N1Cc1ccccc1 (configuration not stated)	nt	nt	3.7	-2.2	nt	10
CCc1ccccc1NC(=O)CCC(=O)N1CC(C)Oc2ccc(C)cc21 (configuration not stated)	nt	nt	2.0	nt	-1.6%	5
CC(C)(C)C(=O)O/N=C(\N)c1ccc([N+](=O)[O-])s1	3%	2%	-0.5	-0.1	-1.9%	-1
Cc1cc(S(=O)(=O)Nc2ccc(C(=O)NCc3ccncc3)cc2)ccc1F	1%	-50%	0.4	nt	0.5%	5
O=C(O)CCCC(=O)Nc1ccc(Oc2cccc(C(F)(F)F)c2)nc1	-7%	-4%	1.0	1.5	0.3%	4

More entries follow.
canonical_smiles	gsp antagonist	gsp agonist	TRPML1 agonist	Menin-MLL FL inh	ClpP mod	TRPML1 blocker
Cc1ccc(NC(=O)CSc2nnc(C)c(=O)[nH]2)cc1C	-1%	-4%[15.4 µM]	-0.6	-2.9	nt	-7
C=CCNC(=S)NNC(=O)c1csc(C)c1CC	2%	7%	1.3	0.4	0.0%	-4
O=C(NN=C1CCCCCC1)NC1CCCCC1	2%	-14%[15.4 µM]	-1.1	3.9	0.0%	0
CCN1C[C@@H]2[C@@H]3C(=O)N(C)C(=O)[C@@H]3[C@](Cc3ccccc3)(C1=O)N2C(=O)c1ccc(Br)cc1	1%	nt	0.1	nt	1.2%	84
COc1ccccc1NC(=O)CCN1C(=O)/C(=C/c2cc(OC)c(OC)c(OC)c2)SC1=S	-4%	-33%[inhibitor]	nt	?	1.4%	nt
Cc1cc(OCCCCCNCCO)ccc1Cl	9%	-2%	1.1	4.0	1.3%	-7
Cc1ccccc1NC(=O)C1CCCN1/C=C/C(=O)C(F)(F)F (configuration not stated)	12%	-23%	-0.3	0.0	-1.1%	-3
CCCc1nc2c3ccccc3ccn2c1Cc1ccccc1	nt	nt	3.3	nt	4.6%	66
Cc1noc(/C=C/c2ccco2)c1S(=O)(=O)N1CCC(C(=O)NC(C)c2ccccc2)CC1 (configuration not stated)	-7%	-51%[inhibitor]	0.3	13	-15%	4
CCCCN(CC)CCCNC(=O)c1nn(-c2ccc(OC)cc2)c(=O)c2c1c1ccccc1n2C	nt	nt	1.4	nt	-13%	-10

Other entries.
canonical_smiles	gsp antagonist	gsp agonist	TRPML1 agonist	Menin-MLL FL inh	ClpP mod	TRPML1 blocker
O=C(Nc1ccc(Cl)cn1)c1ccc(Oc2ccccc2)cc1	-20%	27%	4.6	2.1	nt	-19
O=c1[nH]c(-c2ccccc2)nc2sc(-c3ccccc3)cc12	18%	8%[15.4 µM]	-0.1	1.3	nt	8
O=C(CCS(=O)(=O)c1cc(Br)cc2c1N(C(=O)C1CC1)CC2)NCc1ccco1	-18%	-4%	-0.9	3.9	1.3%	15
Cc1cc(N2CCCC2=O)cc(C)c1S(=O)(=O)NCCOc1ccc(C(C)(C)C)cc1	25µM*	-14%	3.1	-0.2	-0.4%	26
O=C(CSc1ccc(-c2ccccn2)nn1)N1CCc2ccccc21	1%	14%[15.4 µM]	1.1	3.4	nt	6

Screens: PubChem BioAssay, National Center for Advancing Translational Sciences (NCATS)

Random draw from the library. Share with any hit: about 2.1%.
